Mtb bLac sens – beta-lactam sensitization of Mtb H37Rv | M. tuberculosis H37Rv growth with meropenem, percent inhibition; hits of this screen are not shown here | inhibition, % at 25 µM | 330,000 compounds, 0.27% hits | AID 434955;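 active = about 74% or more and at least 40 points above the plate without the antibiotic, then above 30% in a dose series; inconclusive = first-round hits that could not be retested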;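 note: growth measured after seven days incubation then overnight dye step; 0% = bacteria only wells and 100% = bacteria with antibiotic; twin plates without the antibiotic show which effects depend on it; some results filed as inactive read as strong as hits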
The depositor's hits bear a star; ? = inconclusive. Only part of the results is shown, so the mix of outcomes need not match the whole.

SMILES	Mtb bLac sens
CC(Sc1nnc(-c2ccncc2)n1C)C(=O)Nc1ccc(N2CCOCC2)cc1 (centres undefined)	-5
Clc1ccc(-c2cc(-c3ccccc3)on2)cc1	-5
CCn1ccnc1CC1COc2ccccc2O1 (centres undefined)	-5
C[C@@H](C(=O)NCC1CCCO1)N1C(=O)N2CCc3c([nH]c4ccccc34)[C@@]2(C)C1=O (some centres undefined)	-7
CCOC(=O)c1cc2c(=O)n3ccccc3nc2n(C)c1=NC(=O)c1c(-c2c(F)cccc2Cl)noc1C	-10
CCN(c1ccccc1)S(=O)(=O)c1ccc(N2CCN(c3ccccc3O)CC2)nc1	-1
C=CCOc1ccccc1CN1CCC(n2nccc2NC(=O)C2CCOC2)CC1 (centres undefined)	2
O=C(COC(=O)c1ccc([N+](=O)[O-])o1)NC12CC3CC(CC(C3)C1)C2	93
Nc1nc(N)nc(-c2cccc(Cl)c2)n1	1
CCOc1ccc(OCCC(=O)NNC(=O)c2ccncc2)cc1	98
COc1ccc2c(c1)OC[C@H]1[C@H]2N2C(=O)c3cc(OC)ccc3NC(=O)[C@@]2(C)[C@H]1c1ccccc1	99
COc1ccc(NC(=O)COC(=O)c2cc(C)oc2C)c([N+](=O)[O-])c1	-5
CN(CC(=O)Nc1ccccc1Cl)C(=O)COC(=O)c1cccs1	-4
CC(=O)Nc1ccc(S(=O)(=O)N(C)CC(=O)OCC(=O)Nc2cc(C)on2)cc1	-3
CC(C)(C)OC(=O)N[C@H](C(=O)OC(C)(C)C)c1ccccc1	-7
COc1ccc(CC(=O)NNC(=O)c2ccccc2)cc1OC	-3
CCc1cccc(NC(=O)[C@@H]2CCCN2C2=NS(=O)(=O)c3ccccc32)c1	0
O=C(COC(=O)CCC(=O)c1cccs1)Nc1cccc(F)c1	-1
C[C@H]1CN([C@@H](C)CO)C(=O)Cc2cc(NS(C)(=O)=O)ccc2O[C@@H]1CN(C)Cc1ccc(Cl)c(Cl)c1	1
Cc1ccc(S(=O)(=O)N2CCN(C(=O)COC(=O)/C=C/c3ccc([N+](=O)[O-])cc3)CC2)c(C)c1	11
O=[N+]([O-])c1cccc(-c2c(-c3ccccc3)ncc3ccc(F)cc23)c1	31
C[C@H](NC(=O)N1C[C@H]2C[C@@H](C1)c1cccc(=O)n1C2)C(=O)Nc1ccc(F)c(F)c1	-7
Nc1ncnc2c1ncn2[C@@H]1O[C@H](CNCc2c(OCc3ccccc3F)ccc3ccccc23)[C@@H](O)[C@H]1O	1
O=C(NCC1COc2ccccc2O1)C1CCN(S(=O)(=O)c2ccccc2)CC1 (centres undefined)	-10
O=C(NCC1CCCCC1)c1cccc(S(=O)(=O)N2CCCC2)c1	-6
O=C(CC1CCCC1)N1CCN(S(=O)(=O)c2ccc(F)cc2)CC1	3
CN1C(=O)N(C)C(=O)C2(Cc3cc([N+](=O)[O-])ccc3N3CCN(C(=O)c4ccccc4)CC32)C1=O (centres undefined)	4
COc1ccc(CNC(=O)C2CCC(=O)N(CCCN3CCCC3=O)C2)cc1 (centres undefined)	?
CN1CCN(c2oc(-c3ccccc3Cl)nc2S(=O)(=O)c2ccccc2)CC1	?
COC(=O)[C@@H](Cc1ccccc1)N(Cc1ccccc1)S(=O)(=O)N(Cc1ccccc1)[C@H](Cc1ccccc1)C(=O)OC	-4

The closing 5 compounds of the section above come first, to join the parts.
SMILES	Mtb bLac sens
O=C(CC1CCCC1)N1CCN(S(=O)(=O)c2ccc(F)cc2)CC1	3
CN1C(=O)N(C)C(=O)C2(Cc3cc([N+](=O)[O-])ccc3N3CCN(C(=O)c4ccccc4)CC32)C1=O (centres undefined)	4
COc1ccc(CNC(=O)C2CCC(=O)N(CCCN3CCCC3=O)C2)cc1 (centres undefined)	?
CN1CCN(c2oc(-c3ccccc3Cl)nc2S(=O)(=O)c2ccccc2)CC1	?
COC(=O)[C@@H](Cc1ccccc1)N(Cc1ccccc1)S(=O)(=O)N(Cc1ccccc1)[C@H](Cc1ccccc1)C(=O)OC	-4
O=C(Oc1cccc([N+](=O)[O-])c1)c1ccc2c(=O)n3c(nc2c1)CCC3	-2
CCOC(=O)c1cc(-c2ccccc2)nn1CC1CC(c2ccc(OC)cc2)=NO1 (centres undefined)	7
Cc1c(Cl)cnc(NC(=O)CSc2nnnn2C)c1Cl	-13
O=C(CCc1ccccc1)NC1(Cc2ccccc2)CCN(CCCc2ccccc2)C1=O (centres undefined)	7
O=C(O)c1cc(S(=O)(=O)Nc2ccc3cn[nH]c3c2)ccc1Br	-9
CCCNC(=O)C(Cc1cccc(C#N)c1)NC(=O)c1ccc(C#N)cc1 (centres undefined)	1
COc1ccc(CC(=O)OCC(=O)c2c[nH]c3ccccc23)cc1	-1
CC(C)C1CCN(C(=O)C2CCC(=O)N(CCc3ccc(Cl)cc3)C2)CC1 (centres undefined)	-2
CC1(C)NC(=O)N(CC(=O)N2CCN(S(=O)(=O)c3cc(Cl)ccc3Cl)CC2)C1=O	-5
CCCOc1ccc(C2=CC(=O)C[C@H](c3ccc(OC)cc3)C2)cc1	93
COc1ccc(N2CCN(C(=O)COC(=O)c3cccc(OC)c3O)CC2)cc1	2
c1ccc2c(c1)-c1cccc3c1c-2cc1ccccc13	20
O=C1C=CC(=O)C=C1	0
CN(CC(=O)Nc1c(Cl)cccc1Cl)C(=O)CC1OC(=O)c2ccccc21 (centres undefined)	0
c1cncc(CNc2ncnc3ccc(-c4cccnc4)cc23)c1	-2
C[C@H](CO)N1C[C@H](C)[C@@H](CN(C)S(C)(=O)=O)Oc2ccc(NC(=O)CCN3CCOCC3)cc2C1=O	-1
CCCSc1ccc([C@@H]2[C@@H]3C(=O)N(CC)C(=O)[C@@H]3[C@]3(C(=O)OC)CCCCN23)cc1	-2
CC(=O)Nc1ccc(Oc2ccc(S(=O)(=O)N3CCCC3)cn2)cc1	1
CCc1cccc(C)c1NC(=O)C1CC(=O)N(C2CCCC2)C1 (centres undefined)	4
O=c1c2ccccc2nc2sc(Nc3ccc(F)cc3)nn12	-2
N#CCC(=O)Nc1ccc(C(=O)OCC(=O)NC(=O)NCc2ccco2)cc1	-9
COc1ccc(C(=O)OCC(=O)c2cc(C)n(CC3CCCO3)c2C)cc1[N+](=O)[O-] (centres undefined)	-4
Cc1c(Cl)cnc(NC(=O)COC(=O)[C@@H](NC(=O)c2ccco2)C(C)C)c1Cl	2
C=CC[C@@H](CC(=O)N[C@@H](CO)Cc1ccccc1)C(=O)N[C@H](COC(=O)[C@H](CC=C)CC(=O)OC(C)(C)C)Cc1c[nH]c2ccccc12	-5
Cc1c(-c2nc3ccccc3[nH]2)cnn1C	-2
Cc1cc(NC(=O)CSc2nnc(-c3ccccc3F)n2C)no1	-5
O=c1c2ccccc2oc2cc(-c3ccc(CN4CCOCC4)cc3)ccc12	19
C=CC[C@H](CC(=O)NCCO)C(=O)N[C@@H](COC(=O)[C@@H](CC=C)Cc1ccc(F)cc1)Cc1ccccc1	2
O=C1c2ccccc2C(=O)N1CCC#Cc1ccc2cc(C3(O)CCCCC3)oc(=O)c2c1	0
CCN(C[C@H]1N[C@@](CC)(C(=O)OC)[C@H]2C(=O)N(C)C(=O)[C@@H]12)C(=O)C1CCCCC1	-3
CCOc1c2ccccc2nn1CCO	-15
Cc1noc(C)c1S(=O)(=O)N(C)C[C@H]1Oc2c(NC(=O)Nc3ccccc3)cccc2C(=O)N([C@H](C)CO)C[C@@H]1C	3
O=C(Nc1ccc(S(=O)(=O)NC2=NCCCCC2)cc1)c1ccc(Cl)c([N+](=O)[O-])c1	1
CN(C)S(=O)(=O)c1ccc(Cl)c(C(=O)NNC(=O)c2ccc3c(c2)OCO3)c1	-4
O=C(CN(C(=O)CNC(=O)c1ccco1)c1ccc(F)cc1)NC1CCCCC1	-9
COc1cc2nc(CN3CCN(S(=O)(=O)c4c(F)cccc4F)CC3)[nH]c(=O)c2cc1OC	8
CCCc1cc(=O)oc2cc(C)cc(OC(C)C(=O)NCC3CCC(C(=O)O)CC3)c12 (centres undefined)	-6
Cc1ccc(Cl)cc1NC(=O)COC(=O)c1ccc(CN2CCCC2=O)cc1	-6
CN(Cc1nc2ccccc2c(=O)[nH]1)C(=O)c1cccc(NC(=O)c2cccs2)c1	1
Cc1cc(NC(=O)c2ccc(-c3ccccc3[N+](=O)[O-])o2)no1	0
Cn1nnnc1SCC(=O)Nc1ncc(C(F)(F)F)cc1Cl	-6
O=C(CSc1nccc(=O)[nH]1)NC1CCCCCCC1	3
Cc1cccc(C(=O)NCCC(=O)NCc2ccccc2Cl)c1	16
CN(Cc1nc2ccccc2c(=O)[nH]1)C(=O)COc1ccccc1Cc1ccccc1	7
COCCO[C@H]1CC[C@@]2(C)C(=CCC3C2CC[C@@]2(C)C3CC[C@]2(C)O)C1 (some centres undefined)	-7

Part of the list above, as labelled records.
O=C(CN(C(=O)CNC(=O)c1ccco1)c1ccc(F)cc1)NC1CCCCC1
  Mtb bLac sens = -9
COc1cc2nc(CN3CCN(S(=O)(=O)c4c(F)cccc4F)CC3)[nH]c(=O)c2cc1OC
  Mtb bLac sens = 8
CCCc1cc(=O)oc2cc(C)cc(OC(C)C(=O)NCC3CCC(C(=O)O)CC3)c12 (centres undefined)
  Mtb bLac sens = -6
Cc1ccc(Cl)cc1NC(=O)COC(=O)c1ccc(CN2CCCC2=O)cc1
  Mtb bLac sens = -6

Pulled one by one from above:
SMILES	Mtb bLac sens
O=C(Nc1ccc(S(=O)(=O)NC2=NCCCCC2)cc1)c1ccc(Cl)c([N+](=O)[O-])c1	1
Cc1noc(C)c1S(=O)(=O)N(C)C[C@H]1Oc2c(NC(=O)Nc3ccccc3)cccc2C(=O)N([C@H](C)CO)C[C@@H]1C	3
O=C(CSc1nccc(=O)[nH]1)NC1CCCCCCC1	3
CN(C)S(=O)(=O)c1ccc(Cl)c(C(=O)NNC(=O)c2ccc3c(c2)OCO3)c1	-4

The list continues.
SMILES	Mtb bLac sens
Cc1ccc(C(=O)C(C)OC(=O)CNS(=O)(=O)c2ccc(C)cc2)cc1 (centres undefined)	-3
O=C(c1cc(S(=O)(=O)NCc2ccco2)ccc1Br)N1CCOCC1	-10
O=C(COC(=O)Cc1c(F)cccc1Cl)NCc1ccc2c(c1)OCO2	0
COC(=O)C1=C(c2ccccc2OCc2ccccc2)C[C@@H]2CC[C@H]1N2C(=O)NCCOc1ccccc1	-10
Cc1cc(NC(=O)CSc2nnc(-c3ccco3)n2N)no1	3
CC1CCC(NC(=O)COC(=O)c2ccc3ncsc3c2)CC1 (centres undefined)	60
O=C(COc1ccc(F)cc1)NNC(=O)Cn1ccc(C(F)(F)F)n1	-8
COc1ccc([N+](=O)[O-])cc1NC(=O)c1cccnc1	-9
O=C(COC(=O)CNC(=O)c1ccc(Cl)c([N+](=O)[O-])c1)NCC1CCCO1 (centres undefined)	-7
NC(=O)c1cccc(-c2noc(-c3ccccc3F)n2)c1	1
CCN1CCN(c2ccc(S(=O)(=O)N3CCOCC3)cc2N)CC1	-3
C#CCOCCOCCOCCNc1nc(N2CCN(C(=O)CCCCCCCCCCNC(=O)[C@H]([C@@H](C)CC)n3cc(CCCCN=C(N)N)nn3)CC2)nc(N2CCN(C(=O)CCCCCCCCCCNC(=O)[C@H](CO)n3cc(CCCSC)nn3)CC2)n1	92
O=C(NNC(=O)c1ccccc1Cl)c1ccc(-n2cncn2)c([N+](=O)[O-])c1	-2
O=C(O)C1=CC[C@@H](c2ccc(Cl)cc2)N(S(=O)(=O)c2ccc(Cl)cc2)C1	0
COc1ccc(C(=O)OCc2c(-c3cccc(OC)c3)ncc3ccccc23)cc1	0
COc1cc2ccccc2cc1C(=O)N1CCN(c2ccccn2)CC1	-6
CC(=O)N1CCN(C(=O)c2c(-c3ccccc3)noc2C)CC1	-7
Cc1ccc(N(CC(=O)NCc2ccccc2)C(=O)CCC(=O)Nc2ccccn2)cc1C	10
COc1ccc(N2C(=O)CC(N3CCN(S(=O)(=O)c4c(C)cc(C)cc4C)CC3)C2=O)cc1 (centres undefined)	-10
Cc1ccc(NC(=O)CCNC(=O)c2ccccc2Cl)cc1S(=O)(=O)N1CCOCC1	8
COCCNC(=O)CN1CCN(S(=O)(=O)c2ccc3c(c2)CCCC3)CC1	-5
CN(CC(=O)Nc1ccc(Cl)cc1)C(=O)CNC(=O)c1cccs1	-5
COc1ccccc1N1CCN(CCN(C(=O)c2ccc(F)cc2)c2ccccn2)CC1	4
COc1ccccc1NS(=O)(=O)c1cc(NC(=O)c2cc(F)c(F)c(F)c2F)ccc1N1CCOCC1	8
Cc1ccc(C(=O)N2CC(C)OC(C)C2)cc1S(=O)(=O)N1CCCCC1 (centres undefined)	-3
CC(C)OC(=O)c1ccc(NC(=O)c2cccc(-n3cnnn3)c2)cc1	40
Cc1ccc(NS(=O)(=O)c2ccc(C(=O)NC3CCN(Cc4ccccc4)CC3)cc2)cc1	10
C1=CC2C3C=CC(C3)C2C1 (centres undefined)	-6
COc1ccc(CNC(=O)COC(=O)Cc2ccc(Br)cc2)cc1	3
COc1ccc(NC(=O)Nc2ccc3c(c2)C(=O)N([C@H](C)CO)C[C@H](C)[C@@H](CN(C)C(=O)Nc2ccc(OC)cc2)O3)cc1	6

Of the compounds above, these have a COOH group.
SMILES	Mtb bLac sens
O=C(O)c1cc(S(=O)(=O)Nc2ccc3cn[nH]c3c2)ccc1Br	-9
CCCc1cc(=O)oc2cc(C)cc(OC(C)C(=O)NCC3CCC(C(=O)O)CC3)c12 (centres undefined)	-6
O=C(O)C1=CC[C@@H](c2ccc(Cl)cc2)N(S(=O)(=O)c2ccc(Cl)cc2)C1	0

Following part:
SMILES	Mtb bLac sens
COc1ccc(CNC(=O)CN(C(=O)c2csnn2)c2cccc3ccccc23)cc1	4
CC(=O)c1ccc(S(=O)(=O)Nc2ccc(C(=O)N(C)CC(=O)Nc3cccc(C)c3C)cc2)cc1	-1
COc1ccccc1CNC(=O)CN(C)CC(=O)Nc1ccc(F)c(F)c1F	6
COc1cc2oc(=O)ccc2cc1[C@@H](O)[C@@H]1OC(C)(C)OC1(C)C	6
O=C(NCC(=O)N1CCN(c2ccc([N+](=O)[O-])cc2)CC1)c1ccco1	-4
COc1ccccc1CNS(=O)(=O)c1cc(C(=O)NCC2CCCO2)c(Cl)cc1Cl (centres undefined)	3
C=CCN(Cc1cccs1)C(=O)CN1CCN(S(=O)(=O)c2ccc3c(c2)OCCCO3)CC1	-1
